StopGo RLuc: FMDV 2A StopGo reporter, Renilla signal. HEK cells with a luciferase reporter of 2A StopGo recoding. Potency, µM (series often up to 57.5 µM), for inactives: top-dose signal change, negative = less light. 120,000 compounds, 0.32% hits. AID 1745857; active means well fitted falling curve with a large enough effect; inconclusive means small, poorly fitted or top-dose-only effect; inactive means no such curve, though single readings can be large or run the other way; note: nearly all actives have a fitted effect of over 55% in size; overnight with compound
StopGo FLuc: FMDV 2A StopGo reporter, firefly signal; HEK cells with a luciferase reporter of 2A StopGo recoding; Potency, µM (highest dose often 57.5 µM), inactives show at the highest dose signal change, negative = less light; 120,000 compounds, 0.23% hits; active = well fitted falling curve with a large enough effect; inconclusive = small, poorly fitted or top-dose-only effect; inactive = no such curve, though single readings can be large or run the other way; note: nearly all actives have a fitted effect of over 60% in size; overnight with compound
* hit, by the source's call; ? = inconclusive; [ ] = dose if it differs, or a comment. % is set by controls: 0 for no effect and ±100 for the full control effect; potency is the fitted concentration of half-maximal effect.

SMILES	StopGo RLuc	StopGo FLuc
CCC(C)(C)C1CCC(NC(=S)NCc2ccc(F)cc2)CC1 (stereo not given)	-36.6%	?
O=C(O)CN(Cc1ccccc1)S(=O)(=O)c1cc(Cl)ccc1Cl	11.2%	-3.2%
CCCn1c(-n2nc(C)cc2C)nc2c1c(=O)n(CCN1CCOCC1)c(=O)n2C	-20.1%	-21.6%
O=C(Nc1ccc(F)cc1)c1cc(-c2ccco2)on1	9.3%	108.7%[activator]
Cc1ccc2nc(N3CCN(c4ccc(F)cc4)CC3)c3nnnn3c2c1	0.7%	0.0%
COC(=O)c1ccc(Cl)cc1NC(=O)N(Cc1ccc(C)o1)C1CCN(Cc2ccccc2)CC1	-1.9%	-4.6%
Cc1ccc(NC(=O)C2=Cc3sc4c(c3CS2)CCCC4)c(C)c1	-4.1%	26.2%
CC1(C)CC(OC(=O)CCC(=O)OC2CC(C)(C)NC(C)(C)C2)CC(C)(C)N1	-12.4%	-8.3%
Cc1nnc(SCc2cc(=O)c3ccccc3[nH]2)s1	18.8%	3.6%
CC1(C)CC(NC(=S)Nc2ccc(F)c(Cl)c2)CC(C)(C)N1	-15.2%	-6.6%
CCN1CCc2c(sc(NC(=O)Nc3cccc(C(C)=O)c3)c2C(N)=O)C1	17.8%	0.0%
Cc1ccc(C)c(N2CCN(C(=O)NCc3noc4ccc(C)cc34)CC2)c1	-4.9%	-12.4%
Cc1ccc(C(C)C)c(OCC(=O)Nc2c(C(=O)c3ccc(F)cc3)oc3ccccc23)c1	-13.7%	-8.0%
C=CCNC(=O)NC(=O)CN1CCCC1C(=O)NC (stereo not given)	-2.0%[1.06 µM]	-7.0%
CCCOc1ccc(-c2nonc2NC(=O)c2ccco2)cc1OCCC	-3.9%	-9.6%
CCCCn1cc(S(=O)(=O)c2ccc(OC)cc2)c(=O)c2cc(OC)ccc21	14.0%	18.2%
O=C(CSc1nc2c([nH]c3ccccc32)c(=O)n1-c1ccc(F)cc1)N1CCCCC1	-8.6%	1.5%
Cc1occc1C(=O)Nc1ccccc1Oc1ccccc1	6.2%	0.0%
CCOC(=O)c1cccc(NC(=O)C2COc3ccc(OC)cc3C2)c1 (stereo not given)	-12.2%	-12.3%
CC(C)C1N=C2c3ccccc3N=C(SCC(=O)NCc3ccc(Cl)cc3)N2C1=O (stereo not given)	0.0%	-0.5%
CSc1ccc(CCNC(=O)Cn2ncc3c([nH]c4ccccc43)c2=O)cc1	-12.9%	-7.5%
CCc1ccc(C(=O)COc2c(C)cc(Br)cc2Cl)cc1	-3.5%	-2.6%
Cc1ccc(CNC(=O)CN2C(=O)C3CCCCN3c3ccc(C(=O)N4CCCC4)cc32)cc1 (stereo not given)	43.4%[activator]	-15.1%
CCNC(=O)C1CCN(Cc2cc3ccccc3n2Cc2ccc(C)cc2)CC1	-21.8%	13.8%
CCOC(=O)C(C)Oc1ccc2c(=O)c(Oc3ccc(OCC)cc3)coc2c1 (stereo not given)	-2.4%	-3.5%

A run of entries of the results above, as a working copy:
SMILES	StopGo RLuc	StopGo FLuc
Cc1ccc(CNC(=O)CN2C(=O)C3CCCCN3c3ccc(C(=O)N4CCCC4)cc32)cc1 (stereo not given)	43.4%[activator]	-15.1%
CCNC(=O)C1CCN(Cc2cc3ccccc3n2Cc2ccc(C)cc2)CC1	-21.8%	13.8%
CCOC(=O)C(C)Oc1ccc2c(=O)c(Oc3ccc(OCC)cc3)coc2c1 (stereo not given)	-2.4%	-3.5%

Looked up one by one from above (7):
SMILES	StopGo RLuc	StopGo FLuc
CCNC(=O)C1CCN(Cc2cc3ccccc3n2Cc2ccc(C)cc2)CC1	-21.8%	13.8%
CCCn1c(-n2nc(C)cc2C)nc2c1c(=O)n(CCN1CCOCC1)c(=O)n2C	-20.1%	-21.6%
C=CCNC(=O)NC(=O)CN1CCCC1C(=O)NC (stereo not given)	-2.0%[1.06 µM]	-7.0%
CCc1ccc(C(=O)COc2c(C)cc(Br)cc2Cl)cc1	-3.5%	-2.6%
CC1(C)CC(OC(=O)CCC(=O)OC2CC(C)(C)NC(C)(C)C2)CC(C)(C)N1	-12.4%	-8.3%
CC1(C)CC(NC(=S)Nc2ccc(F)c(Cl)c2)CC(C)(C)N1	-15.2%	-6.6%
O=C(CSc1nc2c([nH]c3ccccc32)c(=O)n1-c1ccc(F)cc1)N1CCCCC1	-8.6%	1.5%

The list goes on.
SMILES	StopGo RLuc	StopGo FLuc
CN1C(=O)c2ccccc2Sc2ccc(NC(=O)c3ccc(C#N)cc3)cc21	?	?
CCOC(=O)c1ccc(Oc2coc3cc(OCc4ccccc4C)ccc3c2=O)cc1	-5.8%	-3.6%
COc1ccc(NC(=O)c2c(NCc3ccc(N(C)C)cc3)sc3c2CCC3)cc1	-5.9%	13.6%
Cc1nc(NCC(C)C)sc1C(=O)Nc1ccccc1	-0.2%	51.9%[activator]
Cc1cc(C)c2oc(C(=O)Nc3nnc(C)s3)cc(=O)c2c1	-9.5%	-2.7%
CN(c1ccc2sc(C(=O)NC3CCCC3)cc2c1)S(=O)(=O)c1ccc(Cl)cc1	6.5%	9.3%
COc1ccc(Cn2c(=O)c3ccccc3n3c(-c4cccc(OC)c4O)nnc23)cc1	33.6%[activator]	20.6%
CC(NC(=O)C1CCCC1)C(=O)NC(C)(C)C (stereo not given)	10.4%	-1.6%
O=C(NCC#Cc1ccccc1)c1cnc(-c2ccccc2)nc1	0.6%[1.06 µM]	-9.4%
Cc1ccc(SCc2cc(=O)[nH]c(Nc3nc(C)c4cccc(C)c4n3)n2)cc1	-4.1%	10.1%
O=C(c1cc2ccccc2oc1=O)N1CCN(C23CC4CC(CC(C4)C2)C3)CC1	-0.9%	7.3%
Cc1ccc(CN(c2ccc(C(=O)NC3CC3)cc2)S(C)(=O)=O)cc1	7.2%	4.2%
COC(=O)C(C)Oc1ccc2c(C)c(-c3ccc(Cl)cc3)c(=O)oc2c1 (stereo not given)	-4.1%	7.1%
Cc1oc(-c2ccc(Cl)cc2)nc1CSc1nnc(C)n2c1cc1sccc12	-5.4%	-3.6%
CCOC(=O)c1c(NC(=O)/C=C/c2ccc(OCC)cc2)sc(C)c1C	-5.8%	0.9%
Cc1cc(=O)oc2cc(OC(=O)COc3ccc4ccccc4c3)ccc12	-11.2%	7.2%
CCOc1ccc(C(=O)NCCc2sc(-c3ccc(OC)c(OC)c3)nc2C)cc1	35.1%[activator]	358.8%[activator]
O=C(COc1ccc(Br)cc1)Nc1ccc(Cl)cc1C(=O)c1ccccc1	-10.3%	-7.8%
CC1CCN(C(=O)c2noc3c2CC(C(C)(C)C)CC3)CC1 (stereo not given)	3.6%	0.0%
COCCCn1c(=O)c2sccc2n2c(CCCC(=O)NC3CCC(C)CC3)nnc12 (stereo not given)	0.6%	7.0%
CCS(=O)(=O)c1ccccc1C(=O)Nc1ccc(-c2nc3ccccc3s2)cc1	-7.5%	66.0%[activator]
CN(C(=O)CSc1nc2ccc(NC(=O)c3cccs3)cc2s1)c1ccccc1	?	?
Clc1ccc(CO/N=C(\Cn2ccnc2)c2ccc(Cl)cc2Cl)c(Cl)c1	-17.0%	-17.2%
CCN(CC)c1nc2c(c(=O)n(C)c(=O)n2C)n1C(C)C	-4.0%	0.7%
Cc1nc2ccc(C(=O)OCC(=O)NC(C)C34CC5CC(CC(C5)C3)C4)cc2nc1C (stereo not given)	1.9%	12.1%

Gathered by group, the compounds so far with bromine (2)
SMILES	StopGo RLuc	StopGo FLuc
CCc1ccc(C(=O)COc2c(C)cc(Br)cc2Cl)cc1	-3.5%	-2.6%
O=C(COc1ccc(Br)cc1)Nc1ccc(Cl)cc1C(=O)c1ccccc1	-10.3%	-7.8%

Further results.
SMILES	StopGo RLuc	StopGo FLuc
Cc1ccc2occ(CC(=O)N3CCN(c4cccc(Cl)c4)CC3)c2c1	-23.6%	-22.8%
CCNC(=S)N/N=C/c1c(F)cccc1F	8.9%	30.0%
CCOc1ccc(NC(=O)CCc2c[nH]c3ccccc23)cc1	0.6%	27.2%
O=S(=O)(CCSc1nnnn1C1CC1)c1cc(Cl)ccc1Cl	8.4%	5.8%
CC/C=C(/C)C(=O)NCc1ccc(C(=O)NC(C)CC)cc1 (stereo not given)	4.0%	5.0%
CN(Cc1ccccc1)C1CCN(Cc2ccccc2Cl)CC1	-11.8%	1.8%
CC(C)CCNC(=O)C1(C)CN(S(=O)(=O)c2ccccc2)CC(=O)N1c1ccc2c(c1)OCO2 (stereo not given)	39.7%[activator]	20.2%
CCCCCCCCOC(=O)/C(C#N)=C/c1ccc(-c2cccc(C(F)(F)F)c2)o1	-13.9%	-10.3%
O=C1/C(=C\c2ccccc2)CCc2ccccc21	19.4%	175.4%[activator]
Cc1ccc(C)c(N2CCN(Cc3nnc(-c4ccc5c(c4)OCO5)o3)CC2)c1	-12.6%	-0.5%
CCC(CC)NC(=O)c1cccc(F)c1	7.9%[1.06 µM]	2.2%
CC(C)(C)OC(=O)N1CCC(c2c(C(=O)Nc3ccc4c(c3)OCO4)cnn2-c2ccccc2)CC1	-2.3%	10.7%
CC(=O)c1ccc(NS(=O)(=O)c2cc(-c3nc(-c4cccc(Cl)c4)no3)sc2C)cc1	1.8%	0.5%
CCCC1C(c2ccccc2)NC(c2ccccc2)CC1(O)Cc1ccccc1 (stereo not given)	91.9%[activator]	29.7%
CCOC(=O)CSc1nnc2n(-c3ccccc3)c(=O)c3c4c(sc3n12)CC(C(C)(C)C)CC4 (stereo not given)	-8.7%	-17.5%
Cc1ccc(-c2nc(-c3ccc(F)cc3)no2)cc1	11.0%	223.1%[activator]
O=C(c1ccco1)N(CCc1ccccc1)Cc1cccs1	-1.2%[1.06 µM]	?
Cc1cc(OCC(=O)NCCCN2CCCC2=O)c2c(C)c(C)c(=O)oc2c1	54.2%[activator]	50.9%[activator]
CC(C)(C)c1ccc(C2C(C(=O)c3cccs3)=C(O)C(=O)N2c2nncs2)cc1 (stereo not given)	14.4%	218.7%[activator]
CC1CCCN(S(=O)(=O)c2cc3c(cc2Cl)NC(=O)CO3)C1 (stereo not given)	-3.7%	-2.3%
C=CCc1cc(C)ccc1OCCNC(C)C	-8.5%	-9.8%
COc1ccc(Nc2cc(C)nc3nc(-c4ccc(Cl)cc4)nn23)c(OC)c1	31.0%	0.0%
CC1CCCN(Cc2c(O)ccc3c(=O)c(-c4ccccc4Cl)c(C(F)(F)F)oc23)C1 (stereo not given)	-14.2%	-6.2%
CC1=C(C(=O)Nc2ccccc2)C(c2ccc(C)cc2)n2nc(SCc3ccccc3C)nc2N1 (stereo not given)	10.2%	24.6%
Cn1nccc1C(=O)NCc1ccc2c(c1)CCN2C(=O)c1ccc(F)cc1	-8.8%	-21.9%

Next part
SMILES	StopGo RLuc	StopGo FLuc
COc1cc2nc(SCC(=O)Nc3ccc(F)cc3)n3nc(CCn4c(C)nc5ccccc54)nc3c2cc1OC	-9.3%	-34.2%
CC1(C)CC(=O)CC(=Nc2ccccc2N)C1	4.1%	25.4%
CC1CC(C)CN(C(=O)CCC(=O)O)C1 (stereo not given)	5.1%	0.0%
CCC(Oc1ccc(F)cc1)C(=O)Nc1ccc(OC)c2ncccc12 (stereo not given)	-9.3%	-10.0%
Cc1cccc(C(=O)NC(C)C(=O)OCc2cc(=O)oc3c(C)c(O)ccc23)c1 (stereo not given)	-6.7%	-4.2%
CC1CCC(Nc2nc3c(-c4cccc(C(F)(F)F)c4)nnn3c3ccccc23)CC1 (stereo not given)	-12.2%	-26.3%
CCCOc1cccc(C2c3c(oc4cc(C)c(C)cc4c3=O)C(=O)N2CCCN2CCOCC2)c1 (stereo not given)	24.9%	-20.0%
COc1cc(OC)c(N(C)C(=O)c2c(C)oc3ncn(CC(C)C)c(=O)c23)cc1Cl	11.8%	-10.7%
Cc1ccc(C)c(Cn2c(=O)n(CCCC(=O)NCc3ccc4c(c3)OCO4)c(=O)c3sccc32)c1	15.2%	24.8%
CCCCNC(=O)C1CCN(c2nc3ccc(C)cc3[nH]2)CC1	-20.5%	11.8%
CCN(CC)S(=O)(=O)c1ccc(CN)s1	9.1%	2.3%
Fc1ccc(-c2nc(CSc3nnc(-c4ccncc4)n3C3CC3)cs2)cc1	-8.0%[1.06 µM]	?
Cc1ccc(Nc2nc3c(S(=O)(=O)c4ccccc4)nnn3c3ccc(Cl)cc23)c(C)c1	8.9%	-1.8%
Cc1ccc(Cl)cc1NC(=O)c1oc2ccc(S(=O)(=O)N3CCCCCC3)cc2c1C	0.7%	-18.9%
Cc1ccc(NC(=S)NCCc2ccc(F)cc2)cc1C	20.5%	176.1%[activator]
Cc1ccc(-c2cn3nc(N4CCC(C(=O)Nc5ccccc5C)CC4)sc3n2)cc1	-11.9%	39.0%[activator]
CN(C(=O)c1c2c(nc3ccccc13)C(=O)N(C1CCCCC1)C2)c1ccc(F)cc1	18.6%	-0.6%
COc1ccccc1-c1nn2c(=O)cc(CN3CCN(S(=O)(=O)c4ccc(C)cc4)CC3)nc2s1	-11.8%	-3.4%
COc1ccc(-c2ccc(NS(=O)(=O)c3cccc(Cl)c3)cc2)nn1	165.1%[activator]	-0.7%
COc1ccc(OC)c(CNC(=O)c2ncoc2-c2cccc(Cl)c2)c1	13.9%	1.4%
COc1cccc(-n2c(SCC(N)=O)nc3c(oc4ccccc43)c2=O)c1	-2.4%	-2.9%
COC(=O)CC(N)c1ccccc1 (stereo not given)	-10.3%[1.06 µM]	-8.5%
CC1=C(c2ccccc2)Oc2ccccc2C1c1ccc(C)cc1 (stereo not given)	5.7%	2.4%
CC1CCc2c(sc(NC(=O)c3cc(-c4ccc(F)cc4)on3)c2C(N)=O)C1 (stereo not given)	-13.8%	-11.5%
CCCc1cc(=O)oc2c(C)c(OC(C)C(=O)NCc3cccnc3)ccc12 (stereo not given)	1.5%	5.0%
COc1ccc2c(c1)NC(c1ccc(Cl)cc1)=NC(c1cccs1)=N2	-11.8%	51.1%[activator]
CSc1ccc(-c2nc3ncccn3c2Nc2ccc(C)c(C)c2)cc1	-9.5%	29.2%
